Bioassay records deposited in PubChem BioAssay by National Center for Advancing Translational Sciences (NCATS).
Sfp PPTase inh – Sfp phosphopantetheinyl transferase inhibition; Q9F4F7; Biochemical Sfp PPTase activity, qHTS; Potency, µM, for the others: max response, negative = inhibition, hits mostly inhibitors; hit rate 3.5% among 310,000; AID 1490; active = well fitted inhibition curve with a large enough effect; inconclusive = small, poorly fitted or top-dose-only effect, or another doubt; inactive = no such curve, though single readings can be large or run the other way;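 also: the enzyme is Sfp with the accession as filed and its product quenches rhodamine fluorescence; potency is read from the fitted curve at half-maximal effect; 0% = enzyme reaction without inhibitor and -100% = no enzyme wells; top concentration of the series not given in the record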
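Sfp 15 nM + cpd, 15 min RT; start w/ rhodamine-CoA 5 uM, BHQ-2-YbbR 12.5 uM (final); 50 mM Hepes pH 7.6, 10 mM MgCl2, 0.01% NP-40, 0.01% BSA; read 525/598 nm at 0 and 30 min.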
Menin MLL FP FL – displaces fluorescein MLL peptide from human menin. FP activity change, % at 61.4 µM. AID 1766. 290,000 tested, under 10 active. Fluorescence polarization, fluorescein-MLL peptide displacement from menin; inconclusive = falling polarisation curve, or a change in total fluorescence; inactive = total fluorescence flat and polarisation flat or rising; no compound was filed as active; the % refers to the polarisation; negative = inhibition;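 also: % of control where 0% means no effect; inhibitors lower the polarisation; unlabelled MLL peptide was the positive control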
gsp ag – activates gsp, the McCune-Albright syndrome mutation; hit rate 0.13% among 340,000; gsp mutant cells, cAMP HTRF, 30 min; control for the full effect not named in the record; Potency, µM (doses to about 76.9 µM), inactives show at the highest dose activation (cAMP increase), usual class: activators; active = well fitted activation curve with a large enough effect; inconclusive = small, poorly fitted or top-dose-only effect, or another doubt; inactive = no such curve, though single readings can be large or run the other way; cell line not stated here;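 also: phosphodiesterase inhibitor Ro 20-1724 added with compounds to block cAMP breakdown; potency is read from the fitted curve at half-maximal effect; nearly all actives have a fitted effect of over 60% in size; about a fifth of the inactives were tested at one dose only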
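Cells stably selected in G418 were plated at 2000/well, grown 16-24 hr, then given compounds in DMSO with the PDE inhibitor […] (300 uM solution added) for 30 min at 37C; cAMP was read by HTRF.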
TRPV1 PAM – human TRPV1 potentiation | TRPV1-expressing cells, Fluo-8 calcium influx, capsaicin EC20 potentiation; host cell line not named in the record; control for the full effect not named in the record | potentiation, % at 8.33 µM | hit rate 0.02% among 320,000; active means potentiation above 80%; inconclusive means 30% to 80%; inactive means below 30%; also: 0% is about no effect
Target sequence (Q8NER1 whole entry, looked up): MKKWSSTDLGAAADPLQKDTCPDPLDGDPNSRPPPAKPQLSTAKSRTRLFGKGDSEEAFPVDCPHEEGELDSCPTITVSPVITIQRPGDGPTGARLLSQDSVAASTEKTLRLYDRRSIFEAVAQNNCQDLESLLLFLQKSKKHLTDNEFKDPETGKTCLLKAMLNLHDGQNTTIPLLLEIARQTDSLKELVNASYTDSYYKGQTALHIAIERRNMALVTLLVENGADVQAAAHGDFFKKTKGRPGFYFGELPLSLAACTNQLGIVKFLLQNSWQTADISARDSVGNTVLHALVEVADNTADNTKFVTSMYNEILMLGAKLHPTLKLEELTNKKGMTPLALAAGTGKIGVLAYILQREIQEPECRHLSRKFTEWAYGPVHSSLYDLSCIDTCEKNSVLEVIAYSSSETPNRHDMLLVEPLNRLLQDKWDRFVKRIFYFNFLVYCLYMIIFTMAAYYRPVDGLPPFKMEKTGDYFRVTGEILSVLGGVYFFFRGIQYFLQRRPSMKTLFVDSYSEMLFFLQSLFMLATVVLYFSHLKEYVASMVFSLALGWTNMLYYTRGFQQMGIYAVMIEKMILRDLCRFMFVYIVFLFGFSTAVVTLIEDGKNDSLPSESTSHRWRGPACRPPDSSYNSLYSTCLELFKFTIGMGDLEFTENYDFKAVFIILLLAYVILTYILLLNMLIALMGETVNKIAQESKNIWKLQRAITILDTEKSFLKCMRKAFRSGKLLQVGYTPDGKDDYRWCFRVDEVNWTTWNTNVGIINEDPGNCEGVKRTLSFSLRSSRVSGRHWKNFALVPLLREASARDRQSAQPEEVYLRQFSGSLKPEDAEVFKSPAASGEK
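Cells expressing TRPV1 were dye-loaded with Fluo-8 and read kinetically: 10 s baseline, 3 min after compound (agonist portion), then 2 min after EC20 capsaicin (allosteric enhancer portion). Calcium-bound dye fluorescence at 480/520 nm.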
ClpP mod – qHTS Assay for Activators of ClpP. ATP-dependent Clp protease proteolytic subunit (Bacillus subtilis (strain 168)), P80244. purified B. subtilis ClpP, FRET peptide cleavage, 20 min. Potency, µM (series often up to 57.5 µM), without a hit: top-dose activity change, negative = active. hit rate 1.9% among 340,000. AID 651965, 2013; active = well fitted falling curve with a large enough effect; inconclusive = small, poorly fitted or top-dose-only effect; inactive = no such curve, though single readings can be large or run the other way; also: potency is read from the fitted curve at half-maximal effect; the source files actives as falling curves though it sought activators and does not explain the sign; nearly all actives have a fitted effect of over 65% in size; many hits overshoot -100%
Target sequence (P80244 whole entry, looked up): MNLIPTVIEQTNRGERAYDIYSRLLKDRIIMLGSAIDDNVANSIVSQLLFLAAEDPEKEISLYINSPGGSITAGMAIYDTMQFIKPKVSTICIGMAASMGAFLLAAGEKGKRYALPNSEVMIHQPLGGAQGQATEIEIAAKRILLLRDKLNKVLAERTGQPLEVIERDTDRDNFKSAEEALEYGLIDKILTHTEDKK
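FRET quenching reversal measured ClpP activation: 10 microg/mL B. subtilis ClpP at pH 8 with the FRET-FV decapeptide, read at 430 nm after 320 nm excitation. The 20-min minus 0-min signal was scaled between DMSO/no-enzyme wells and ADEP (5.8 microM final).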
TRPML1 inh – blocks the human TRPML1 channel; activity change, negative = inhibition, % (concentration not given with the values); hit rate 0.02% among 390,000; AID 624415; TRPML1-inducible cells, Ca2+ dye fluorescence, FDSS; hits give low values; inhibition of EC80 agonist-evoked calcium signal; Q9GZU1; in the data active means activity change below about -50%; inconclusive means about -30% to -50%; inactive means above about -30%;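 also: stimulus is agonist 54-4 at its EC80 concentration; % is scaled to controls: 0 for no effect and ±100 for the full control effect; compound concentration not given in the record; the text of the record puts the active cut at -80%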
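Calcium fluorescence in TRPML1-DL cells induced overnight with Tet: a 110 s read after compound pin addition, then a 110 s antagonist read after challenge with 54-4 at 4 uM final (EC80).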
gsp antag – antagonizes gsp, the McCune-Albright syndrome mutation | hit rate 0.4% among 340,000 | AID 624288 | Potency, µM (doses to about 76.9 µM), for the others: top-dose activity change, negative = inhibition, most hits filed as inhibitors | gsp-mutant cells, cAMP HTRF, 30 min; control for the full effect not named in the record; active = falling curve of any shape with a large fitted effect; inconclusive = falling curve, mostly with a smaller effect; inactive = flat or rising curve; cell line not stated here;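 also: intracellular cAMP measured with PDE inhibitor Ro 20-1724 present during compound exposure; potency is read from the fitted curve at half-maximal effect; % is scaled to controls: 0 for no effect and ±100 for the full control effect; nearly all actives have a fitted effect of over 65% in size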
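Cells, 2000/well, grown 16–24 h in DMEM 10% FBS with 0.5 mg/ml G418, then compounds plus […] (300 uM addition stock), 30 min at 37C. cAMP read by HTRF (cAMP-d2 and anti-cAMP antibody-K in lysis buffer) after 30 min RT.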
An asterisk follows results filed as active; u = inconclusive; x = no result given; [ ] = dose if it differs, or a comment.

SMILES	Sfp PPTase inh	Menin MLL FP FL	gsp ag	TRPV1 PAM	ClpP mod	TRPML1 inh	gsp antag
CCCC1(C(=O)OC)NC(c2cc(OC)c(OC)c(OC)c2)C2C(=O)N(CC)C(=O)C21 (configuration not stated)	-5%	4.7	-28%	5	-1.0%	-6	-5%
CC1=NN(c2ccccc2)C(=O)C1N=Nc1ccccc1 (configuration not stated)	18%	x	-5%[15.4 µM]	1	x	16	-2%
CN(Cc1ccccc1)C(NC(=O)c1ccccc1)C(Cl)(Cl)Cl (configuration not stated)	14%	3.3	-29%	28	-8.5%	3	-4%
C[C@@H]1CN([C@@H](C)CO)S(=O)(=O)c2ccc(C#CC(C)(C)O)cc2O[C@H]1CN(C)C(=O)C1CCCCC1	x	x	-14%	x	1.1%	-4	x
O=[N+]([O-])c1ccc(C=NNC(=S)Nc2ccc(F)cc2)cc1	x	x	-36%	x	x	-12	0%
O=C(Nc1ccccc1)c1nn(-c2cccc(C(F)(F)F)c2)ccc1=O	4%	1.1	13%	-10	-0.3%	61	-1%
COc1ccc(OC)c(-n2c(=S)[nH]c3cc(C(=O)N4CCC(C(N)=O)CC4)ccc3c2=O)c1	-24%	2.1	-30%[inhibitor]	6	0.2%	-2	-8%
CCc1ccccc1NC(=O)C(C)n1nc([N+](=O)[O-])c(Br)c1C (configuration not stated)	-14%	7.8	24%	23	-0.5%	-9	-7%
O=C(Cn1cc(F)c(=O)[nH]c1=O)c1ccco1	x	x	5%	x	-1.9%	20	x
Cc1ccc(C)c(OCC(O)CNC2CCCC2)c1 (configuration not stated)	12%	0.6	u	-6	-4.9%	-9	3%
CCCC(=O)Nc1ccc(S(=O)(=O)Nc2cc(OC)ncn2)cc1	9%	-0.6	u	10	-0.3%	16	1%
CC(C)(C)NC(=O)c1ccccc1-c1nc2ccccc2s1	12%	1.6	26%	5	-3.6%	-9	0%
Cc1nnc(NC(=O)c2cccc(S(=O)(=O)N3CC(c4ccccc4)CC3=O)c2)s1 (configuration not stated)	20%	3.6	-36%[inhibitor]	-6	0.2%	27	-17%
O=C1NCCCc2c1no[n+]2[O-]	9%	2.7	-39%[inhibitor]	20	-0.3%	-7	8%
Cc1cccc(C(=O)NC(=S)Nc2ccccc2C(F)(F)F)c1	2%	1.6	10%	-6	1.3%	32	-5%
C/C(NCc1cccnc1)=C(\C#N)C(=O)NCc1ccccc1	7%	5.6	u	10	-0.8%	-5	4%
COc1ccc(N(CC(=O)N/N=C(\C)c2ccc(C)cc2)S(=O)(=O)c2ccccc2)cc1	3%	-1.5	-37%[inhibitor]	2	x	9	2%
COC(=O)CSc1cnc2ccccc2n1	12%	3.9	4%	1	-3.2%	3	-4%
O=C1C2C3C=CC(C3)C2C(=O)N1CN(Cc1ccccc1)CN1C(=O)C2C3C=CC(C3)C2C1=O (configuration not stated)	-2%	-0.9	-64%[inhibitor]	-6	-2.9%	10	5%
COc1ccc(CNC(=O)CN2C(=O)CCSc3ccc(S(=O)(=O)N4CCCC4)cc32)cc1	23%	20	-20%	0	-0.1%	11	-14%
O=C(CO/N=C/c1ccc(OC(F)F)cc1)NC1CCCC1	17%	-2.1	-60%[inhibitor]	-1	x	-9	6%
Cc1ccc(NC(=O)CCCN2C(=O)c3cccc4cccc(c34)C2=O)cc1	-24%	5.8	11%[15.4 µM]	-4	-3.7%	52	-13%
CC(=O)Nc1ccccc1C(=O)C(=O)Nc1ccc(C)c(F)c1	5%	2.4	0%[15.4 µM]	-2	2.5%	-10	13%
Cc1ccc(CNC(=O)c2ccc(S(=O)(=O)N3CCCCC3)cc2)cc1	x	x	u	-8	-1.5%	-19	7%
CCCCn1c(N)c(N(CC)C(=O)c2ccc(Cl)c([N+](=O)[O-])c2)c(=O)[nH]c1=O	-5%	-5.4	13%[15.4 µM]	16	x	-2	3%
Next entries.
SMILES	Sfp PPTase inh	Menin MLL FP FL	gsp ag	TRPV1 PAM	ClpP mod	TRPML1 inh	gsp antag
O=S(=O)(NCCC1=CCCCC1)c1c(Cl)cccc1Cl	x	x	13%	-13	-3.8%	16	-4%
Cc1nn(-c2ccccc2)cc1/C=N/NC(N)=S	25%	-0.1	-2%[15.4 µM]	-1	-1.4%	-2	-3%
Cc1cccnc1NC(=O)CNC(=O)c1cccs1	x	x	-11%	-26	-1.4%	40	14%
CC(=O)Nc1ccc(NC(=O)CSc2ncnc3sc(C)c(C)c23)cc1	26%	3.3	12%[15.4 µM]	0	x	21	12%
Cc1nc([N+](=O)[O-])c(Sc2nc3ccccc3[nH]2)n1Cc1ccccc1	7%	-0.7	-5%	7	0.9%	7	3%
Cc1ccccc1/C=C1\Sc2ccc(C(=O)N3CCN(c4ccccn4)CC3)cc2N(C)C1=O	2%	1.8	-53%[inhibitor]	-2	-8.6%	1	u
Cc1ccc(-c2nc(NC(=O)c3nn(C)cc3[N+](=O)[O-])sc2C)cc1	13%	1.1	u	-7	0.3%	-4	-8%
NC(=O)c1cc(C(=O)c2ccccc2Cl)c[nH]1	10%	-4.0	10%[15.4 µM]	3	x	-3	0%
COc1ccc(-c2cc(C(=O)OCC(=O)N3CCCC3)c3ccccc3n2)cc1	u	4.2	8%	-16	u	16	-19%
c1ccc(-c2nc(-n3nc4ccccc4n3)nc3ccccc23)cc1	-10%	-0.3	-11%	1	35µM*	27	u
C=CCc1cc(C=O)cc(OCC)c1O	0%	-8.6	4%	12	x	8	5%
CC1=CC=CN2CC(O)CN=C12 (configuration not stated)	3%	4.9	-2%	-14	20%	-3	12%
CC(C)CC(=O)Nc1ccc(N2CCOCC2)cc1	-2%	0.2	-17%	8	0.4%	2	8%
CC(OC(=O)c1ccccc1Oc1ccccc1)C(=O)NC1CC1 (configuration not stated)	u	0.3	-1%	-14	-1.5%	9	-2%
CC1=NNC(=O)C1CCC(=O)N/N=C/c1c(Cl)cccc1Cl (configuration not stated)	14%	0.2	4%[15.4 µM]	11	x	-10	x
COCCNC(=O)c1ccc(-c2csc(C)n2)cc1	6%	-3.4	5%[15.4 µM]	u	x	-6	6%
CC(C)OCCCNC(=O)NC12CC3CC(CC(C3)C1)C2	5%	-0.2	-19%	-19	0.6%	11	-25%
Cc1ccc(NC(=O)CN2C(=O)C3CC=CCC3C2=O)cc1S(=O)(=O)N1CCOCC1 (configuration not stated)	4%	3.5	23%	11	x	6	7%
CCC/C=N/NC(=O)c1cccc(Br)c1	6%	1.6	-64%[inhibitor]	-2	x	11	8%
CC(C)NC(=O)CSCc1cccc(Br)c1	15%	4.1	-38%[inhibitor]	-10	-1.3%	-3	6%
O=C(CN1C(=O)COc2ccccc21)NCCN1CCC(Cc2ccccc2)CC1	-1%	2.6	4%	-9	0.3%	0	13%
COc1ccc(S(=O)(=O)N2CCC(C(=O)NCCOc3ccccc3F)CC2)cc1OC	x	x	5%	-6	71%	28	1%
CC(OC(=O)c1ccccc1Nc1ccc(SC(F)F)cc1)C(N)=O (configuration not stated)	-6%	-3.5	1%	-8	-7.2%	63	-21%
CC(=O)Nc1ccc(S(=O)(=O)NC(CC(=O)NC2CCCCC2C)C(C)C)cc1 (configuration not stated)	13%	4.5	8%	-5	-0.5%	-4	8%
Cc1cccc(C)c1NC(=O)N1CCCCCCC1	8%	-2.0	14%[15.4 µM]	-1	x	2	5%
Following part.
SMILES	Sfp PPTase inh	Menin MLL FP FL	gsp ag	TRPV1 PAM	ClpP mod	TRPML1 inh	gsp antag
CCN(CC)CCN1C(=O)c2oc3ccccc3c(=O)c2C1c1cccc(Br)c1 (configuration not stated)	10%	4.4	3%	-17	-1.6%	1	-6%
Cn1c(=O)[nH]c(=O)c2c1nc(Br)n2CCSc1nnnn1-c1ccccc1	24%	-1.7	-29%	-11	1.3%	0	4%
COc1ccc(S(=O)(=O)Nc2cc3c4c(c2)C(C)C(=O)N4CCC3)cc1OC (configuration not stated)	x	x	-19%[15.4 µM]	3	x	-10	-2%
O=C(Oc1ccc(NC2=C(Cl)C(=O)c3ccccc3C2=O)cc1)c1ccc([N+](=O)[O-])cc1	-4%	6.1	-31%	1	0.2%	15	35%[activator]
Cc1ccccc1NC(=O)CC1SC(=NC2CCCCC2)NC1=O (configuration not stated)	-14%	1.0	7%	1	-1.1%	6	2%
CCN(CCn1cccn1)C(=O)CC1C(=O)NCCN1Cc1ccc(OC)c(OC)c1 (configuration not stated)	20%	0.5	-7%	0	-3.3%	-7	-4%
COc1ccc(OC)c(/C=C/C(=O)OCC(=O)Nc2ccc3c(c2)OCCO3)c1	-21%	0.8	-1%	u	165%	-5	35%
CCOCCCN1C(=O)C2C(C(=O)Nc3ccc(OCC)cc3)C3C=CC2(O3)C1C(=O)NC1CCCCC1 (configuration not stated)	3%	-5.2	20%[15.4 µM]	2	-0.6%	2	-21%
COc1ccc(OC)c(-c2cc(C(=O)NCCN3CCOCC3)no2)c1	8%	4.5	-41%[inhibitor]	-6	-2.5%	-11	4%
Cc1nn(C(C)(C)C)c(OC(=O)c2cccs2)c1S(=O)(=O)c1ccccc1	-2%	4.0	0%	-6	4.7%	3	-5%
COc1ccc(CCNC(=O)C2CCCN2S(=O)(=O)c2ccc(F)cc2)cc1OC (configuration not stated)	-6%	0.6	-9%[15.4 µM]	-13	-2.1%	-5	4%
C[C@@H]1CCC[C@@]2(O[C@H](CCO)C[C@H](O)[C@H]2O)O1	x	x	x	x	0.0%	3	6%
CCC(C(=O)OCC(=O)Nc1ccc(C(N)=O)cc1)c1ccccc1 (configuration not stated)	21%	-0.9	7%[15.4 µM]	-10	x	22	-1%
O=C(CCC(=O)c1ccccc1)NCCc1c[nH]c2ccccc12	8%	-1.7	4%[15.4 µM]	4	-1.8%	29	10%
CCOc1cc(/C=N/NC(=O)C(OC)c2ccccc2)ccc1O (configuration not stated)	-8%	-1.1	5%	0	-29%	3	2%
CCN(CC(=O)NC(C)(C)C)Cc1nc2c(Br)cc(Br)cc2c(=O)[nH]1	-7%	1.0	18%[15.4 µM]	12	x	-7	8%

Rows are unselected; about 4.9% have a hit in one of these screens.
